KCNQ2 block: KCNQ2 potassium channel inhibitors, primary screen, cell-based, CHO-K1, FluxOR thallium flux, B-score (AID 2156). hit rate 1.1% among 310,000. O88943. B-score at 10 µM. 20 min; hits give low values; only compounds with negative scores are shown here; some inactives read as strong as hits;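 active means fluorescence ratio B-score at most minus 3 library SDs, with starting brightness B-score within 2 library SDs, cut at about -5.5 in these data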
Target sequence (O88943 whole entry, looked up): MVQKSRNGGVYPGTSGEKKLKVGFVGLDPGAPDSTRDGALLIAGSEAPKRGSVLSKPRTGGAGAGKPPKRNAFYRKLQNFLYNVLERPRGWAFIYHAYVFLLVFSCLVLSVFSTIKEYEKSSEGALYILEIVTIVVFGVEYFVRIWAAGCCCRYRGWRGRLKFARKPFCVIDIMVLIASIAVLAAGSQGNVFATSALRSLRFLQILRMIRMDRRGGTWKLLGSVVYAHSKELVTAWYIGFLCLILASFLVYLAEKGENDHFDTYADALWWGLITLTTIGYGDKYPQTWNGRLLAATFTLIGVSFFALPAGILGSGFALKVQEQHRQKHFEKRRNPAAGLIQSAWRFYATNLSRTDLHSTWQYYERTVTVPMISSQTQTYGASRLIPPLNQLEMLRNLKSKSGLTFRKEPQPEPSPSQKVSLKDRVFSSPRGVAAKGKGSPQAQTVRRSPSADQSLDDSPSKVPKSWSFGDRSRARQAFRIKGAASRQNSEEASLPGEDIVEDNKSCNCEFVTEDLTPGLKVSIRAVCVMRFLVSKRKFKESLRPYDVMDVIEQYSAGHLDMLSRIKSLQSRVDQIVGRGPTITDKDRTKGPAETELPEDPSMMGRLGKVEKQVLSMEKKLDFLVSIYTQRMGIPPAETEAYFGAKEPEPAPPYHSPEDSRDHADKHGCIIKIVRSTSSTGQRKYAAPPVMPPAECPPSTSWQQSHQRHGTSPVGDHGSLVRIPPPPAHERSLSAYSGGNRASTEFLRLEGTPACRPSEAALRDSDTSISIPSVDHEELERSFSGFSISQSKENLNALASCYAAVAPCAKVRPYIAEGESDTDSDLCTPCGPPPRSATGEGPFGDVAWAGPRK
KCNQ2 block baseline: second read-out of KCNQ2 block, no call of its own (marks repeat the call); B-score; measured here: initial fluorescence intensity artifact check;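 brightness before thallium and not channel activity; 0 = typical well and far values either way flag optical interference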
* marks the source's active call; other numbers are inactive results; i = inactive. A portion of the library; rates above refer to the full screens.

SMILES	KCNQ2 block	KCNQ2 block baseline
O=C(c1ccco1)N1CCN(c2nc(-c3ccc(F)cc3)cs2)CC1	i	-0.97
O=C1CC(N2CCN(C/C=C/c3ccccc3)CC2)C(=O)N1Cc1cccs1 (stereo not drawn)	i	1.5
Cc1ccc2nc3c(nc2c1C)CCCC3	i	1.6
COc1ccc(Oc2nnc(-c3ccccc3)cc2C#N)cc1	i	0.16
Oc1oc(-c2ccccc2Br)nc1C=Nc1ccc(Br)cn1	i	-0.03
O=C(c1ccccc1Oc1ccccc1)N1CCN(c2ccccc2)CC1	i	0.21
CSc1cccc(NC(=O)c2cc(S(=O)(=O)N3CCCC3)cn2C)c1	i	0.47
Cc1ccccc1NC(=O)N1CCN(S(=O)(=O)c2ccccc2)CC1	i	-0.66
COc1ccc(NC(=O)CCS(=O)(=O)c2cc3c(cc2C)NC(=O)CO3)cc1	i	2.2
COC(=O)COc1ccc(-c2nccc(-c3ccc(Br)cc3)n2)cc1	i	0.68
COC(=O)c1ccc(COc2ccc(-c3nnn(CC(=O)NC(C)(C)C)n3)cc2)cc1	i	0.02
CNC(=O)c1cc2c(cn1)[nH]c1ccccc12	i	0.01
COc1ccc(C(=O)CN2C(=O)C(C)(C)Oc3ccc(C(=O)N4CCCCCC4)cc32)cc1	i	0.39
O=C(NN=C1CCCC1)c1ccc(O)cc1O	i	0.06
COc1ccc(C(=O)NC(CO)c2nnc(SCc3ccc(Cl)c(Cl)c3)n2C)cc1 (stereo not drawn)	i	1.9
Cc1cc(NC(=O)c2cccs2)n(-c2ccccc2)n1	i	0.14
O=C(Nc1ccnn1C1CCN(Cc2cccc(F)c2F)CC1)C1CCCC1	i	-0.27
Cc1[nH]c2ccccc2c1C(=O)COC(=O)CCS(=O)(=O)c1ccccc1Cl	i	-0.22
O=S(=O)(c1cccs1)N1CN(Cc2ccco2)c2nc3ccccc3nc21	i	0.25
COc1ccc(Cc2nc(-c3cccc(C)c3)no2)cc1	i	-0.03

Next part, overlapping the part above by 4 compounds.
SMILES	KCNQ2 block	KCNQ2 block baseline
O=C(Nc1ccnn1C1CCN(Cc2cccc(F)c2F)CC1)C1CCCC1	i	-0.27
Cc1[nH]c2ccccc2c1C(=O)COC(=O)CCS(=O)(=O)c1ccccc1Cl	i	-0.22
O=S(=O)(c1cccs1)N1CN(Cc2ccco2)c2nc3ccccc3nc21	i	0.25
COc1ccc(Cc2nc(-c3cccc(C)c3)no2)cc1	i	-0.03
Cc1no[n+]([O-])c1COc1ccc(/C=C(\C#N)C(N)=O)cc1	i	-0.81
N=C1/C(=C\c2ccc(OC(=O)c3ccccc3Cl)cc2)C(=O)N=C2SC(N3CCOCC3)=NN12	i	-1.1
NC(=O)NC(CC(=O)NCCc1ccccn1)c1ccccc1Cl (stereo not drawn)	i	-0.93
O=S(=O)(NN1CCOCC1)c1ccc(Br)s1	i	-3.3
Cc1ccc(CSc2nn3c(=O)c(C)nnc3s2)cc1	i	1.3
COc1ccc(-n2c(SCC(=O)Nc3cc(C)on3)nc3ccccc3c2=O)cc1Cl	i	0.25
CCN(CC)S(=O)(=O)c1cccc(C(=O)Oc2cccc(NC(=O)c3cccs3)c2)c1	i	-0.59
CC(=O)N(Cc1cccnc1)Cc1cc2ccc(C)cc2[nH]c1=O	i	2.8
Cc1cc(Br)ccc1NC(=O)CN(C)C(=O)CSCc1ccccc1	i	0.02
Cc1ccc(C(C(=O)NC2CCCCC2)N(C(=O)Cc2c[nH]c3ccccc23)c2ccccc2)o1 (stereo not drawn)	i	1.8
CCCC1(c2ccccc2)NC(=O)N(CC(=O)Nc2sc(-c3ccccc3)cc2C(=O)OCC)C1=O (stereo not drawn)	i	-0.82
Cn1cc(CCCC(=O)NCc2ccc(F)cc2)c2ccccc21	i	-3
CN(CC(=O)Nc1cccnc1)S(=O)(=O)c1cc(Cl)ccc1Cl	i	-0.41
COc1cccc(/C=N/n2c(-c3ccco3)nc3ccccc3c2=O)c1	i	1.9
Cc1ccc(CNC(=O)CSc2nc3c(sc4ccccc43)c(=O)n2CCCN2CCCC2)cc1	i	-0.62
CCOC(=O)N1CCN(C(=O)COC(=O)c2ccccc2NCCO)CC1	i	0.34
Cc1ccc(C2/C(=C(\O)c3ccc4c(c3)OCCO4)C(=O)C(=O)N2CC2CCCO2)cc1 (stereo not drawn)	i	-0.35
CCOC(=O)c1ccc(NC(=O)c2sc3nc(N4CCOCC4)c4c(c3c2N)CCCC4)cc1	i	-0.8
Cc1ccc(NC(=O)N2CCN(c3ncccc3C(F)(F)F)CC2)cc1	i	-0.85
Cc1ccc2cc(CN(CCO)Cc3nnnn3Cc3ccc(F)cc3)c(=O)[nH]c2c1	i	1.7
O=C(/C(=C/O)N=Nc1ccccc1)c1ccc(Cl)cc1	i	-0.2
O=S(=O)(c1ccc(NCC2CCCCC2)nc1)N1CCOCC1	i	1.5
c1cncc(Nc2nc(-c3cccnc3)cs2)c1	i	3.6
S=C(Nc1ccccc1Cl)NC1CCCCCC1	i	-1.5
COc1cccc(CNC(=O)Cn2ccc3cc(S(=O)(=O)N4CCCCCC4)ccc32)c1	i	0.52
COc1ccc(S(=O)(=O)NC(C)C(=O)N2CCCC2)cc1C (stereo not drawn)	i	0.5
O=C(CSc1n[nH]c(-c2ccccc2)n1)Nc1ccc(F)cc1F	i	-1.1
COc1ccc(N(C(=O)c2cccnc2)S(=O)(=O)c2ccc(OC)c(OC)c2)cc1	i	0.72
CC(C)[C@H](NC(=O)NC1CCN(Cc2ccccc2)CC1)C(=O)O	i	0.05
Cc1ccc(S(=O)(=O)N2CCN(Cc3csc(C)n3)CC2)cc1	i	-1.4
O=C(O)CCC(=O)Nc1ccccc1Oc1ccccc1	i	0.67
Cc1n[nH]c(=S)n1/N=C/c1ccc(Br)o1	i	0.58
CC(C)c1ccc(OCC(=O)Nc2cccc3c2CCCC3)cc1	i	0.1
O=C(CSc1nnc(-c2ccc(F)cc2)o1)Nc1ccccc1N1CCOCC1	i	0.72
CC1CCc2c(sc(NC(=O)Cn3nc(C(F)(F)F)c4c3CCCCC4)c2C#N)C1 (stereo not drawn)	i	0.14
Cc1ccc2c(c1)c1c(n2CC(O)Cn2ccnc2C)C(=O)CCC1 (stereo not drawn)	i	-0.05
COc1cc(OC)cc(-c2cc3nc(C)cc(N4CCN(C(=O)c5ccco5)CC4)n3n2)c1	i	-0.29
COc1cc(NC(=O)COc2cc(O)c3c(c2)OC(C)(C)CC3=O)cc(OC)c1OC	i	0.07
CC(C)CNC(=O)COc1ncnc2ccccc12	i	0.12
COc1ccc(CNC(=O)c2cccc(NC3=NC4CS(=O)(=O)CC4S3)c2)cc1 (stereo not drawn)	i	1.7
CC1CC(C)CN(C(=O)c2ccccc2Nc2ccc(SC(F)F)cc2)C1 (stereo not drawn)	i	0.02
Cn1cc(/C=N/NC(=O)c2ccc(C#N)cc2F)c2ccccc21	i	0.47
Cc1ccc(C2CC(c3ccccc3)n3ncnc3N2)cc1 (stereo not drawn)	i	1.2
COC(=O)C1=C(COc2ccccc2)NC(=O)NC1c1ccc(Cl)cc1 (stereo not drawn)	i	-0.87
CCCn1cc(S(=O)(=O)c2ccccc2)c(=O)c2cc(F)c(N3CCN(C)CC3)cc21	i	-1.1
O=C1c2ccccc2S(=O)(=O)N1Cc1c(F)cccc1Cl	i	0.1
CCn1c(=O)c(C(=O)CN2CCN(S(=O)(=O)c3cc(C)ccc3C)CC2)c(N)n(Cc2ccccc2)c1=O	i	-0.22
CNC(C)C#Cc1ccc2sc3cc(OC)c(OC)cc3c(=O)c2c1 (stereo not drawn)	i	0.28
O=C(C1CCCC1)N1CCC(CC2CC(c3cccc(Br)c3)=NO2)(C(=O)NCC2CCCCC2)CC1 (stereo not drawn)	i	2.3
C=CCn1c(-c2ccc(OC)cc2)csc1=Nc1c(C)n(C)n(-c2ccccc2)c1=O	i	-0.51
Cn1c(C(=O)O)c(CC(=O)Nc2ccc3c(c2)OCCO3)c2ccccc21	i	1.6
O=c1[nH]c(-c2ccc(Cl)cc2)cs1	i	-0.58
CCc1cc(=O)oc2cc(C)cc(OC(=O)c3ccco3)c12	i	-1
COC(=O)COc1ccc(S(=O)(=O)NCCC2=CCCCC2)cc1C	i	-1
CCc1ccc(N(C(=O)c2csnn2)C(C(=O)NC(C)(C)CC)c2ccccn2)cc1 (stereo not drawn)	i	-0.48
COc1ccccc1CC(=O)N1CCCC(CCC(=O)NCc2ccccc2F)C1 (stereo not drawn)	i	-0.66
Cc1ccc(NC(=O)/C(=C\c2ccccc2)NC(=O)c2ccco2)cc1	i	-0.6
CCC1=NN(C(=O)c2cccc(Br)c2)C(O)(c2ccc(Br)cc2)C1 (stereo not drawn)	i	0.24
COc1ccc(N=C(C)C2=C(O)COC2=O)cc1	i	0.35
CCOC(=O)N1CCN(C(=O)/C(=C/c2ccc(Cl)cc2)NC(=O)c2ccccc2)CC1	i	0.73
Going on with the list.
SMILES	KCNQ2 block	KCNQ2 block baseline
COc1ccc(C2SCCN2C(=S)Nc2cccc(C(F)(F)F)c2)cc1 (stereo not drawn)	i	-0.51
CN1CCN(Cc2cccc3ncccc23)CC1CCO (stereo not drawn)	i	-1.6
CCOC(=O)NC1(NC2CCCCC2)Oc2ccccc2O1	i	0.79
COc1ccc(-c2csc(C3=C(O)CN(Cc4ccc(Cl)cc4)C3=N)n2)cc1OC	i	0.43
CCC1=C(OC(=O)c2ccccc2)C(C)(C)C(c2ccccc2)OC1=O (stereo not drawn)	i	-0.77
O=C1/C(=C/c2cccc(Cl)c2)CSc2sccc21	i	-0.89
CC1(C(=O)O)CCC(C(=O)Nc2ccccc2O)C1(C)C (stereo not drawn)	i	-2
COc1cccc(-c2cc(=O)c3cc(NC(C)=O)ccc3[nH]2)c1	i	-0.05
Cc1ccc(C(=O)Nc2ccc3c(c2)OCO3)cc1S(=O)(=O)N1CCCCC1	i	-0.67
Cc1ccc(C(=O)Nc2ccc(Nc3ccccc3)cc2)cc1Br	i	0.45
CC(=O)Nc1ccc(S(=O)(=O)/N=C2/NC(=O)/C(=C\c3ccco3)S2)cc1	i	1.6
CCCC(=O)Nc1ccc2nc(C)n(Cc3ccccc3Cl)c(=O)c2c1	i	-0.38
Cc1ccc(CNC(=O)CSCc2cccc(F)c2)cc1	i	-0.81
COc1ccc(C2CC(=O)C(C=NCCCN3CCOCC3)=C(O)C2)cc1 (stereo not drawn)	i	0.98
O=C(CN1CCOCCOCCOCC1)Nc1ccccc1	i	-0.03
CC1CN(S(=O)(=O)c2cccc(-c3cn4ccccc4n3)c2)CC(C)O1 (stereo not drawn)	i	0.95
CC(Oc1ccc(Cl)cc1)C(=O)Nc1sccc1C(N)=O (stereo not drawn)	i	2.7
CCCn1nnc(NC(=O)c2ccc(F)cc2)n1	i	2.3
Cc1cccc(N(C)C(=O)c2cc(S(=O)(=O)N3CCCC3)cn2C)c1	i	-0.08
Cc1ccc(C)c(-c2nnc(NC(=O)CCS(=O)(=O)c3ccccc3)o2)c1	i	0.25

Molecules listed so far that contain a furan ring, fused or not:
SMILES	KCNQ2 block	KCNQ2 block baseline
O=C(c1ccco1)N1CCN(c2nc(-c3ccc(F)cc3)cs2)CC1	i	-0.97
O=S(=O)(c1cccs1)N1CN(Cc2ccco2)c2nc3ccccc3nc21	i	0.25
Cc1ccc(C(C(=O)NC2CCCCC2)N(C(=O)Cc2c[nH]c3ccccc23)c2ccccc2)o1 (stereo not drawn)	i	1.8
COc1cccc(/C=N/n2c(-c3ccco3)nc3ccccc3c2=O)c1	i	1.9
Cc1n[nH]c(=S)n1/N=C/c1ccc(Br)o1	i	0.58
COc1cc(OC)cc(-c2cc3nc(C)cc(N4CCN(C(=O)c5ccco5)CC4)n3n2)c1	i	-0.29
CCc1cc(=O)oc2cc(C)cc(OC(=O)c3ccco3)c12	i	-1
Cc1ccc(NC(=O)/C(=C\c2ccccc2)NC(=O)c2ccco2)cc1	i	-0.6
CC(=O)Nc1ccc(S(=O)(=O)/N=C2/NC(=O)/C(=C\c3ccco3)S2)cc1	i	1.6

The results go on.
SMILES	KCNQ2 block	KCNQ2 block baseline
CCCCCC(O)(c1ccccc1)C(CN1CCOCC1)c1ccccc1 (stereo not drawn)	i	-0.32
CCc1nnc(NC(=O)c2csc3c2CCC(C)C3)s1 (stereo not drawn)	i	-1.1
COc1ccc(C2C(C(C)=O)=C(O)C(=O)N2c2cccnc2)cc1OC (stereo not drawn)	i	1.1
CCc1nonc1NC(=O)c1oc2cc(Br)ccc2c1C	i	0.54
COc1ccc(N2CCN(C(=O)CCc3c[nH]c4ccccc34)CC2)cc1	i	-0.19
Cc1sc2nc(C3CC3)nc(N3CCN(C(=O)c4ccc(F)cc4)CC3)c2c1C	i	-0.8
C=CCC1C=C(Cc2ccccc2)CC(CC=C)N1 (stereo not drawn)	i	-1.4
CC1CCCN(C(=O)COC(=O)C2CCN(S(=O)(=O)c3ccc4c(c3)OCCO4)CC2)C1 (stereo not drawn)	i	2.7
O=C(COCc1cc(-c2ccc3c(c2)OCO3)on1)Nc1cccnc1	i	0.36
COc1cccc(N2C(=O)CC(c3c[nH]c4ccccc34)C2=O)c1 (stereo not drawn)	i	2.2
Cc1ccc(NC(=O)CCn2cccc2)cc1C	i	-0.03
COC(=O)c1ccc(C(=O)OC)c(NC(=O)COC(=O)C23CC4CC(CC(O)(C4)C2)C3)c1	i	0.08
CC(NC(=O)c1ccc(N)cc1)c1ccccc1 (stereo not drawn)	i	-0.26
O=C(Nn1cnnc1)c1cc2c(s1)CCCCC2	i	-0.57
COc1ccc(-c2noc3c2-c2nc(-c4ccccc4F)sc2CC3)cc1	i	0.79
COc1ccc(OCC(=O)Nc2ccc(N3CCOCC3)cc2)c([N+](=O)[O-])c1	i	1
Oc1ccc(-c2nnc(Nc3cccc(O)c3)c3ccccc23)cc1	i	-1.1
